Bioassay records deposited in PubChem by Fisher Drug Discovery Resource Center.
NPYLR7 ag: mosquito NPYLR7 agonism | HEK293T NPYLR7/Galpha15, GCaMP6s calcium fluorescence | activation, % at 10 µM | 0.15% of 270,000 active | AID 1259423; in the data active means activation above about 40%;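 further: 0% = vehicle and 100% = reference agonist at the receptor; some compounds past the cut are filed as inactive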
NPYLR7 ag max-min: also measured in NPYLR7 ag; calls as there; activation, %; measured here: Max-Min RFU normalised activation; some inactives read as strong as hits;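 span of the calcium signal over five minutes; 0% = vehicle and 100% = native peptide agonist; compound fluorescence can raise it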
* marks the source's active call; other numbers are inactive results; & = joins results of further samples.

Molecule | NPYLR7 ag | NPYLR7 ag max-min
Cc1c[nH]c(CN2CCCC(O)(CO)C2)c(C)c1=O (stereo unspecified) | -2 | -6
NC(=O)C(Sc1nncs1)c1ccc(Br)cc1 (stereo unspecified) | 2 | 5
O=C(Cn1cc(OCc2ccc(F)cc2)c(=O)cc1CO)NCc1ccc(F)cc1 | 3 | 2
Cc1cc(Br)c(OCCn2cnc3ccccc3c2=O)c(Br)c1 | -7 | -6
Cc1cccn2cc(C(=O)N3Cc4cnc(C(C)(C)C)nc4C3)nc12 | 1 | -7
CCc1nc(-c2ccccc2)nc(N2CCN(S(C)(=O)=O)CC2)c1Cc1c(F)cccc1Cl | 6 | 8
COc1ccc(OC)c(C(=O)CSc2nccn(-c3ccc(C)c(C)c3)c2=O)c1 | -5 | -10
O=C(c1ccc2c(=O)n3c(nc2c1)CCCCCC3)N1CCCCCC1 | 3 | -4
CCOCCCNC(=O)c1cc(NC(=O)Nc2cccc(CC)c2)ccc1N1CCCC1 | -4 | 1
CCCOc1ccc(-c2c(=O)n(OCC)c3ccccc3[n+]2[O-])cc1 | 6 | 2
CC(C)CCC(C)NC(=O)c1ccc2nccnc2c1 (stereo unspecified) | -4 | -2
Nn1c(-c2cc(F)ccc2F)n[nH]c1=S | 1 | 3
CCOC(=O)c1ccc2c(c1)nc(SCc1ccc(/C=C/c3ccccc3)cc1)n2Cc1cccc(F)c1 | 10 | 5
Cc1cc(C(=O)N2CCN(c3nc4c(F)cc(F)cc4s3)CC2)nn1C | 4 | 1
N#Cc1ccccc1NC(=O)CSCc1ccccn1 | 1 | -2
Cc1cc(CN2CCN(C(=O)Nc3cccc4c3CCCC4)CC2)on1 | -2 | -3
CC(C)c1nc2cc(C(=O)NCCc3nc(-c4ccccc4)no3)ccc2o1 | 20 | 8
CC1C(=O)N2CCCc3cc(S(=O)(=O)Nc4ccccc4C(N)=O)cc1c32 (stereo unspecified) | 7 | 4
COCCOc1nc(-c2ccc(F)cc2)n(-c2ccc(NC(=O)Nc3ccc(OC)cc3)cc2)n1 | 3 | 8
COc1ccc(NC(=O)c2sc(=O)n(Cc3ccccc3)c2C)cc1OC | 4 | -1
Cc1cccc(-c2nnc(NC(=O)C(NC(=O)c3ccc([N+](=O)[O-])cc3)C(C)C)s2)c1 (stereo unspecified) | 22 | 26
NC(=O)C1=CN2CCN(Cc3ccccc3)C(=O)N=C2O1 | -1 | -5
COc1coc(C(=O)NCc2cccnc2Oc2ccccc2F)cc1=O | 19 | 4
NC(=O)c1ccc(N2CCCC2)c(NC(=O)c2ccccc2)c1 | -6 | -9
Cc1ccc(-c2nc(NCCN3CCC(O)CC3)ncc2-c2ccncc2)cc1 | 6 | 6
CSc1ccc(CN2CCC2(C)C(=O)Nc2ccc(C)cc2)cc1 (stereo unspecified) | 2 | 1
O=C(Cc1cn2ccsc2n1)NN=Cc1ccc([N+](=O)[O-])o1 | -8 | -11
COc1ccc(S(=O)(=O)N2CC(O)C[C@H]2C(=O)OCC(=O)Nc2ccc(Cl)cn2)cc1 (stereo partly specified) | 5 | 14
CN1CC(NC(=O)NC2CCc3cc(Cl)ccc32)CCC1=O (stereo unspecified) | 0 | -1
O=C(c1c(F)cccc1F)N1CCN(S(=O)(=O)c2ccc3c(c2)OCCO3)CC1 | 2 | 1
Cc1ccc(C2CC(c3cccnc3)=Nc3nc(C(F)(F)F)nn32)cc1 (stereo unspecified) | -2 | 1
O=c1[nH]c(=O)n(Cc2nc(Cc3ccccc3)no2)cc1Cl | -3 | -3
Cn1c(N)c(C(=O)CC#N)c(=O)n(C)c1=O | 0 | -1
COCCCN(CC(=O)Nc1cc(C(C)(C)C)nn1-c1cccc(C)c1)C(=O)Nc1ccc(F)c(Cl)c1 | -2 | -1
CCn1ccnc1C(CCc1ccccc1)OC(=O)c1csc(-c2ccoc2)n1 (stereo unspecified) | 3 | 2
O=C(Nc1ccc2c(c1)CN(C(=O)c1cncs1)CC2)c1ccccn1 | -6 | -6
CC(=O)c1ccc(NC(=O)N(C)c2c(C)nc3ccc(C(=O)N(C)Cc4ccco4)cn23)cc1 | 16 | 14
COc1cc(N2CCOCC2)ncn1 | -1 | 2
CCCOC(=O)N1CCC2(CC1)N=C(Cc1ccc(OC)cc1)NC2=O | 2 | 18
COc1cc(OC)c(OC)cc1CNC(=O)c1nn(-c2ccc(F)cc2)c2c1CCC2 | -2 | -3

Nothing new here: an excerpt of the list.
Molecule | NPYLR7 ag | NPYLR7 ag max-min
Cc1cccc(-c2nnc(NC(=O)C(NC(=O)c3ccc([N+](=O)[O-])cc3)C(C)C)s2)c1 (stereo unspecified) | 22 | 26
NC(=O)C1=CN2CCN(Cc3ccccc3)C(=O)N=C2O1 | -1 | -5
COc1coc(C(=O)NCc2cccnc2Oc2ccccc2F)cc1=O | 19 | 4
NC(=O)c1ccc(N2CCCC2)c(NC(=O)c2ccccc2)c1 | -6 | -9
Cc1ccc(-c2nc(NCCN3CCC(O)CC3)ncc2-c2ccncc2)cc1 | 6 | 6
CSc1ccc(CN2CCC2(C)C(=O)Nc2ccc(C)cc2)cc1 (stereo unspecified) | 2 | 1
O=C(Cc1cn2ccsc2n1)NN=Cc1ccc([N+](=O)[O-])o1 | -8 | -11
COc1ccc(S(=O)(=O)N2CC(O)C[C@H]2C(=O)OCC(=O)Nc2ccc(Cl)cn2)cc1 (stereo partly specified) | 5 | 14
CN1CC(NC(=O)NC2CCc3cc(Cl)ccc32)CCC1=O (stereo unspecified) | 0 | -1
O=C(c1c(F)cccc1F)N1CCN(S(=O)(=O)c2ccc3c(c2)OCCO3)CC1 | 2 | 1
Cc1ccc(C2CC(c3cccnc3)=Nc3nc(C(F)(F)F)nn32)cc1 (stereo unspecified) | -2 | 1
O=c1[nH]c(=O)n(Cc2nc(Cc3ccccc3)no2)cc1Cl | -3 | -3
Cn1c(N)c(C(=O)CC#N)c(=O)n(C)c1=O | 0 | -1

Next section.
Molecule | NPYLR7 ag | NPYLR7 ag max-min
COCc1cccc(-c2csc(C(C)(NC(C)=O)c3ccc(OC)cc3)n2)c1 (stereo unspecified) | 4 | 1
Cc1cc(S(=O)(=O)N2CCC(c3cn(Cc4ccc(C(F)(F)F)cc4)c4ccccc34)CC2)c(Cl)cc1Cl | 19 | 10
O=C(Nc1ccc(N2CCCC2)nc1)Nc1ccc2c(c1)OCO2 | 4 | 1
CCOC(=O)c1nn(-c2ccc(F)cc2)c(=O)c2c(NC(=O)c3cccc([N+](=O)[O-])c3C)scc12 | -7 | -4
Cc1cc(NC(=O)COC(=O)c2oc3c(C)ccc(C)c3c2C)n(C)n1 | 2 | 0
Cc1ccc(C(=O)NNC(=O)c2c(-c3ccccc3)noc2C)c(C)c1 | 9 | 10
COc1ccc(NC(=O)CCC2CCCN(C(=O)c3cc(C)nn3C)C2)cc1Cl (stereo unspecified) | -2 | -7
COc1ccc(OC)c(NC(=O)c2c(N)c(C(=O)c3ccc4c(c3)CCCC4)n3ccccc23)c1 | -1 | -7
Oc1cccc(Nc2nccc3[nH]c(-c4ccccc4Cl)nc23)c1 | -5 | -10
Cc1ccc[n+](C2=C(c3c(C)[nH]n(-c4ccc(F)cc4)c3=O)C(=O)N(C(C)C)C2=O)c1 | -14 | -7
COCCCNC(=O)c1csc(CSc2nnc(-c3ccncc3)n2-c2ccccc2F)n1 | -11 | -14
OCCC1CN(Cc2ccc(Cl)cc2)CCN1C1CCCC1 (stereo unspecified) | 0 | -1
CC1=C(C(=O)OC2CCCC2)C(c2cc3c(cc2[N+](=O)[O-])OCO3)NC(=O)N1C (stereo unspecified) | -7 | -10
c1nc2ccc(Oc3ccc4nc[nH]c4c3)cc2[nH]1 | 19 | 10
N#CC1C(=N)Oc2c(sc3ccccc23)C1c1ccco1 (stereo unspecified) | 15 | 14
CCCCc1cnc2c(c1SCC(=O)Nc1ccc(F)cc1)c(=O)n(C)c(=O)n2C | 8 | 13
CN1C[C@@H]2CC[C@H](CC1=O)N2S(=O)(=O)N1CCOCC1 | 0 | -2
CCc1c(C)c(C(=O)Nc2cccc(F)c2)n(Cc2ccc(F)c(F)c2)c1C | 33 | 41
Cc1cc(C(=O)CSc2nc(N)nc(N)n2)c(C)n1C1CCS(=O)(=O)C1 (stereo unspecified) | 2 | 0
Cc1ccc(Sc2ncccc2C(=O)N2CCN(c3nccc(-c4ccc5c(c4)OCO5)n3)CC2)cc1 | 15 | 24
Cc1cccc(CC(=O)NCCn2nc(-c3cccs3)ccc2=O)c1 | 7 | 7
CC(=O)c1cccc(S(=O)(=O)N2CCN(Cc3cccc(F)c3F)CC2)c1 | -8 | 17
O=c1[nH]ncc(NCc2ncc(-c3ccc(F)cc3)[nH]2)c1Cl | 0 | 3
COc1cccc(C(c2ccccn2)N(C)C(=O)C2CCN(S(=O)(=O)c3ccc(C(F)(F)F)cc3)CC2)c1 (stereo unspecified) | 3 | -3
Cc1nc(C(=O)N2CCC(NC(=O)C(C)C)CC2)c2n1CCCC2 | 2 | 9
CN(C(=O)Cn1c(C2CC(=O)N(Cc3ccccc3)C2)nc2ccccc21)c1ccccc1 (stereo unspecified) | 4 | 3
COc1cc(Cl)c(NC(=O)c2ccco2)cc1OC | 10 | 7
CS(=O)(=O)c1ncc(CN2CCCO2)n1CC1CCCO1 (stereo unspecified) | 12 | 11
Cc1ccc(-n2c(SCCCCC(=O)N3CCN(C(=O)c4ccc(Br)cc4)C(C)C3)nnc2-c2ccccc2)cc1 (stereo unspecified) | -1 | 5
CCOc1ccccc1C(=O)N1CC(=O)N(Cc2cccc(F)c2)CC(O)C1 (stereo unspecified) | 19 | 17
c1ccc(CCc2noc(CN3CCC(c4nc5ccccc5[nH]4)CC3)n2)cc1 | 2 | -3
O=S1(=O)N=C(Nc2ccccc2)c2ccccc21 | -7&6 | -12&3
O=C(CSc1nc2c(c(=O)n1Cc1ccccc1)SCC2)NCc1ccccc1 | 7 | -5
CN(C)C(=O)c1cccnc1SCC(=O)Nc1cccc([N+](=O)[O-])c1 | 2 | 6
CCNC(=O)N(Cc1ccccc1)[C@H]1C[C@H]2CCOC[C@@]2(c2ccccc2)C1 | -1 | 1
CCOC(=O)c1nn(-c2ccccc2)c(=O)c2c(NC(=O)c3ccc(Cl)cc3)scc12 | -9 | -6
COC(=O)c1ccccc1S(=O)(=O)N1[C@@H]2CC[C@H]1CN(C)C(=O)C2 | 1 | -2
O=C1OC(c2ccccc2)C(=C(O)c2ccccc2)C1=O (stereo unspecified) | 0 | -5
Cc1nc(C)c(CC(=O)NCCS(=O)(=O)Cc2ccccc2)c(=O)[nH]1 | 6 | 1
Cn1c(=O)[nH]c(=O)c2c1nc(N1CCC(C(N)=O)CC1)n2CCSc1nc2ccccc2s1 | -1 | -3

Two entries from above, with each value named.
O=C1OC(c2ccccc2)C(=C(O)c2ccccc2)C1=O (stereo unspecified)
  NPYLR7 ag = 0 | NPYLR7 ag max-min = -5
COC(=O)c1ccccc1S(=O)(=O)N1[C@@H]2CC[C@H]1CN(C)C(=O)C2
  NPYLR7 ag = 1 | NPYLR7 ag max-min = -2

Continued.
Molecule | NPYLR7 ag | NPYLR7 ag max-min
Cc1ccc(CNC(=O)c2sc(-c3cccs3)nc2C)cc1F | 2 | 8
COCc1nc(C(=O)N(CC(=O)N2CCCCC2)c2ccc(C)cc2)cs1 | 8 | 5
COc1ccc(NC(=O)NCCNc2cc(-n3ccnc3C)ncn2)cc1Cl | -17 | -19
CCOc1ccc(NC(=O)N2CCCn3cncc3C2)cc1 | 4 | 2
COc1ccc(-n2cc(C(C)NS(=O)(=O)NCc3ccccc3)cn2)cc1 (stereo unspecified) | 0 | -3
c1ccc(CNc2ncc(CN3CCCC4(CCNC4)C3)cn2)cc1 (stereo unspecified) | 6 | 3
C=CCOn1c(=O)c(-c2ccc(Cl)cc2)[n+]([O-])c2ccccc21 | -3 | -4
CNc1nc2cnc(-c3ccccc3)cc2n1-c1cccc(F)c1 | 8 | -2
Cc1cc(C)cc(-c2nc3cc(C)ccn3c2NC(=O)CCC2CCCC2)c1 | -8 | -3
Cc1nc(NCCNS(=O)(=O)c2ccc3cccc4c3c2CC4)cc(-n2cccn2)n1 | -4 | -13
O=C(Cn1cnnn1)N1CCN(c2ncc(Cl)cc2F)CC1 | 0 | 14
Cc1c(C(=O)N2CCOCC2)cc(-c2ccc(Cl)cc2)n1-c1cccc(F)c1 | 14 | 20
CC1(C(=O)NCc2ccc(Cl)cc2)CCN1C(=O)CCc1ccc(Cl)cc1Cl (stereo unspecified) | -1 | 0
Cn1c(-c2ccccc2)cc2c(Nc3cccc(O)c3)nccc21 | -4 | -8
CC(C)c1ccc(CC(=O)N2CCC2(C)C(=O)NS(C)(=O)=O)cc1 (stereo unspecified) | 4 | 6
COc1ccc(CCOC(=O)[C@@H]2CCCN2C(=O)c2ccc(Cl)c(Cl)c2)cc1OC | -1 | -7
CC(C)(C)NC(=O)NC1CCN(c2ccccc2C(=O)NCc2cccnc2)CC1 | 26 | 15
O=C(NC1(C(F)(F)F)C(=O)Nc2c1c(=O)[nH]c(=O)n2-c1ccccc1)c1ccncc1 (stereo unspecified) | -7 | -12
O=C(NC1(C(F)(F)F)Oc2ccccc2O1)Oc1ccccc1 | 4 | 1
CO[C@@]1(NC(=O)[C@H](C(=O)O)c2ccc(O)cc2)C(=O)N2C(C(=O)O)=C(CSc3nnnn3C)CO[C@@H]21 | 1 | -3
O=C(CCc1nnc(C2CCCC2)o1)N(CC1CC1)C1CCCCC1 | 1 | -1
Cc1onc(-c2c(Cl)cccc2Cl)c1C(=O)N1CCc2ccccc2C1c1ccccc1Cl (stereo unspecified) | 22 | 8
Cc1ccc(-c2cc(C(=O)O)[nH]n2)c(C)c1 | -4 | -8
CC1=CS/C(=C(/C#N)C(=O)N2CCCCC2)N1c1ccccc1 | -2 | -4
O=C(c1ccncn1)N1CCc2[nH]nc(-c3ccc(-c4ccccc4)cc3)c2C1 | 2 | -7
CC(=O)Nc1ccc(NCC(=O)N2N=C(c3ccc(Cl)cc3)CC2c2ccco2)cc1Cl (stereo unspecified) | 1 | 12
COc1nn(C(C)C(=O)NNC(=S)Nc2ccccc2C(F)(F)F)cc1[N+](=O)[O-] (stereo unspecified) | 1 | 0
CCCC(=O)Nc1ccc(C(=O)Cn2cnc3sc4c(c3c2=O)CCC4)cc1 | -2 | -3
O=C(c1ccc2nc[nH]c2c1)N1CCC(CCOc2ccccc2)(C(=O)O)CC1 | 5 | 2

The list is partial (hit frequency here may not be typical).
